MLL AF4-AF9 inh: blocks AF4 peptide binding to human AF9 | P42568 | AlphaScreen, biotin-AF4 peptide binding to FLAG-AF9 | inhibition, % at 10 µM | 0.47% of 350,000 active;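 active = every replicate reaching a set inhibition limit, whatever the replicate mean, cut at about 25% in these data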;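 also: 0% = plate neutral control median and 100% = total signal loss; the record names both 10 and 1 µM as test concentration; the first replicate is given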
Target sequence (P42568 whole entry, looked up): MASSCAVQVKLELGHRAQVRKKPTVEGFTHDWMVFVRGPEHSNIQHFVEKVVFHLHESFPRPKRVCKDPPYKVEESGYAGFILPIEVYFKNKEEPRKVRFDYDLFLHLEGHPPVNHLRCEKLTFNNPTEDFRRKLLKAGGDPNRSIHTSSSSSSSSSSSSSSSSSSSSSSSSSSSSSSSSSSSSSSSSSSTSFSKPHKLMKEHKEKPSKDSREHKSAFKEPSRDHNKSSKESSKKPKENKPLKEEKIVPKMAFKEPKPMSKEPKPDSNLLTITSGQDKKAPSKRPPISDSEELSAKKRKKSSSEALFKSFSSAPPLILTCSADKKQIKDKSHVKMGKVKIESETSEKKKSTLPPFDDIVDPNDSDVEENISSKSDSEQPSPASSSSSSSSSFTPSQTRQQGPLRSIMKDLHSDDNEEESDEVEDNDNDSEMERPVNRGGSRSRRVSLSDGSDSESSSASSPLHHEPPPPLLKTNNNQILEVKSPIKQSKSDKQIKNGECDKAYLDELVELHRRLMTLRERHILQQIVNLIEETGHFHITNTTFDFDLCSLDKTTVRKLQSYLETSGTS
Starred values were filed as active, the others as inactive; & = joins results of further samples.

SMILES | MLL AF4-AF9 inh
COC(=O)[C@H]1[C@H](CO)[C@H]2Cn3c(ccc(-c4ccc(F)cc4)c3=O)[C@H]2N1Cc1ccccn1 | 2.2
CCc1nc2ccc(C(=O)Nc3ccc(OC)c(OC)c3)cn2c1N(C)C(=O)Cc1ccccc1 | -3.0
CS(=O)(=O)c1ccc(-c2cc(NC=O)c3ncc(-c4ccc(F)cc4)n3c2)cc1 | -0.8
COc1ccc(NC(=O)Nc2ccc3c(c2)C(=O)N([C@@H](C)CO)C[C@@H](C)[C@H](CN(C)C(=O)Cc2ccccc2)OCCCC[C@@H](C)O3)cc1 | -0.9
CO[C@@H]1CN(C)C(=O)c2cccc(C#N)c2OC[C@H]2O[C@H](CC[C@H]2OC)CCN(C)C(=O)[C@H]1C | -3.6
C[C@@H]1CN([C@@H](C)CO)C(=O)c2cc(NS(=O)(=O)c3cccs3)ccc2O[C@@H](C)CCCCO[C@H]1CN(C)C | -3.0
CCC(=O)N1CC(=O)N2[C@H](CO)[C@@H](c3ccc(-c4ccc(C(=O)N(C)C)cc4)cc3)[C@H]2C1 | 15
C[C@@H]1CN([C@@H](C)CO)C(=O)c2cc(-c3ccc(C(=O)N(C)C)cc3)cnc2O[C@@H]1CN(C)C(=O)CN(C)C | -8.7
CCN(CC)S(=O)(=O)c1ccc(NC(=O)C2CC(=O)N(c3ccc4c(c3)OCCO4)C2)cc1 (stereo not given) | -2.6
C[C@@H]1CN([C@H](C)CO)C(=O)c2cc(NC(=O)CCCN(C)C)ccc2O[C@H]1CN(C)C(=O)NC1CCCCC1 | -2.5

Random excerpt: 3 records from the list
SMILES | MLL AF4-AF9 inh
COc1ccc(NC(=O)Nc2ccc3c(c2)C(=O)N([C@@H](C)CO)C[C@@H](C)[C@H](CN(C)C(=O)Cc2ccccc2)OCCCC[C@@H](C)O3)cc1 | -0.9
CCN(CC)S(=O)(=O)c1ccc(NC(=O)C2CC(=O)N(c3ccc4c(c3)OCCO4)C2)cc1 (stereo not given) | -2.6
C[C@@H]1CN([C@@H](C)CO)C(=O)c2cc(-c3ccc(C(=O)N(C)C)cc3)cnc2O[C@@H]1CN(C)C(=O)CN(C)C | -8.7

Carrying on:
SMILES | MLL AF4-AF9 inh
CCCNC(=O)C[C@@H]1CC[C@@H]2[C@H](COC[C@@H](O)CN2C(=O)c2ccc(F)cc2)O1 | -2.8
O=C(C[C@@H]1C=C[C@@H](NC(=O)Nc2cc(F)ccc2F)[C@@H](CO)O1)NCc1ccncn1 | 1.6
O=C(NCc1ccccc1)[C@@H]1N[C@@H]2c3ccc(-c4ccccc4)c(=O)n3C[C@@H]2[C@H]1CO | 2.9
CCNC[C@H]1[C@@H](c2ccccc2)[C@@H](CO)N1C(=O)Cc1ccccn1 | 0.0
CC(C)NC(=O)N[C@H]1CC[C@@H](CCNS(=O)(=O)Cc2ccccc2)O[C@@H]1CO | -4.4
CNC[C@@H]1OCCCC[C@H](C)Oc2ccc(NC(=O)Nc3ccccc3)cc2C(=O)N([C@@H](C)CO)C[C@@H]1C | 5.4
COC(=O)[C@@H]1[C@@H](CO)[C@@H]2Cn3c(ccc(-c4ccc(F)cc4)c3=O)[C@@H]2N1C | -2.8
Cc1ccc(S(=O)(=O)N[C@@H]2C=C[C@@H](CC(=O)N3CCN(c4ccccc4)CC3)O[C@H]2CO)cc1 | -1.1
COc1ccc(CNS(=O)(=O)c2cc(Cl)ccc2N2CC[C@@H](O)C2)cc1 | 1.3
CCCCCCCCN1C(=O)[C@@H](CC(=O)NCc2ccccc2)C[C@@]2(C(=O)OC)C1=C[C@H](C(C)(C)C)O[C@@H]2C | -8.9

Part of the list above, reformatted.
canonical_smiles	MLL AF4-AF9 inh
CCNC[C@H]1[C@@H](c2ccccc2)[C@@H](CO)N1C(=O)Cc1ccccn1	0.0
CC(C)NC(=O)N[C@H]1CC[C@@H](CCNS(=O)(=O)Cc2ccccc2)O[C@@H]1CO	-4.4
CNC[C@@H]1OCCCC[C@H](C)Oc2ccc(NC(=O)Nc3ccccc3)cc2C(=O)N([C@@H](C)CO)C[C@@H]1C	5.4
COC(=O)[C@@H]1[C@@H](CO)[C@@H]2Cn3c(ccc(-c4ccc(F)cc4)c3=O)[C@@H]2N1C	-2.8
Cc1ccc(S(=O)(=O)N[C@@H]2C=C[C@@H](CC(=O)N3CCN(c4ccccc4)CC3)O[C@H]2CO)cc1	-1.1
COc1ccc(CNS(=O)(=O)c2cc(Cl)ccc2N2CC[C@@H](O)C2)cc1	1.3

Remaining list, next part
SMILES | MLL AF4-AF9 inh
O=C(CC1CC1)N1CC(=O)N2[C@H](C1)[C@H](c1ccc(/C=C/c3ccccc3)cc1)[C@@H]2CO | 7.4
C[C@@H]1CCCCO[C@@H](CN(C)C(=O)c2ccccc2)[C@H](C)CN([C@@H](C)CO)C(=O)c2cc(NC(=O)Nc3ccc(F)cc3)ccc2O1 | -9.0
Cc1cccc(S(=O)(=O)N2C[C@@H](O)COC[C@@H]3O[C@H](CC(=O)NCc4ccc5c(c4)OCO5)CC[C@H]32)c1 | -0.5
Cc1noc(C)c1NC(=O)Nc1ccc2c(c1)C(=O)N(C)[C@@H]1CC[C@H](CC(=O)NCc3ccc(Cl)cc3)O[C@@H]1CO2 | 0.9
CN1C(=O)c2cc(NS(C)(=O)=O)ccc2OC[C@H]2O[C@@H](CC(=O)N3CCOCC3)CC[C@H]21 | 2.4
CN(C)CCNc1ncnc2c1ncn2[C@H]1CN(Cc2ccc(Cl)cc2)C[C@@H](CO)O1 | 1.8
C/C=C/c1ccc([C@H]2[C@@H](CO)N(CCC)[C@@H]2CN(CC)C(=O)c2ccccn2)cc1 | 1.4
O=C1CN(Cc2ccccc2)C[C@@H]2[C@H](c3ccc(-c4ccccc4F)cc3)[C@H](CO)N12 | 3.3
CCCNC(=O)N1CC2(C1)CN(C(C)=O)[C@H](CO)c1c2c2ccc(OC)cc2n1C | -0.7
CC1C(=O)N(Cc2cn(Cc3ccco3)nn2)CCS(=O)(=O)N1Cc1ccc(-c2ccccc2C(F)(F)F)cc1 (stereo not given) | -1.0
C[C@@H]1CN([C@@H](C)CO)C(=O)c2cc(NC(=O)C3CC3)ccc2O[C@@H]1CN(C)Cc1ccc(C(=O)Nc2ccccc2N)cc1 | 1.3
COc1cc(C(O)c2nc(-c3ccc(F)c(Cl)c3)cs2)ccc1F (stereo not given) | 7.4
C/C=C/c1ccc([C@@H]2[C@H](CO)N(C(=O)c3cnccn3)C23CN(C(=O)CC)C3)cc1 | -1.4
CCCN(C)C[C@@H]1Oc2ncc(-c3cccc(OC)c3)cc2C(=O)N([C@H](C)CO)C[C@@H]1C | -1.3
CN(C)C(=O)C[C@@H]1CC[C@H](NC(=O)NC2CCCC2)[C@H](CO)O1 | -2.0
COc1cccc(CC(=O)Nc2ccc(F)c(S(=O)(=O)N3CCOCC3)c2)c1 | 1.7
O=C1NC(Cc2ccc(O)cc2)c2nc3ccc(F)cc3c(=O)n2-c2cc3ccccc3cc21 (stereo not given) | 2.5
COc1ccc(Cl)c(-c2cc(C(=O)Nc3ccc(F)cc3)[nH]n2)c1 | -8.9
COc1cccc(NC(=O)N(C)C[C@@H]2Oc3ncc(C#Cc4ccc(F)cc4)cc3C(=O)N([C@@H](C)CO)C[C@@H]2C)c1 | 1.1
CN(C)C(=O)c1ccc(-c2ccc([C@@H]3[C@@H](CO)N4CCCCN(CC5CC5)C[C@H]34)cc2)cc1 | 1.1
CCN1Cc2c(cc(OC)c(OC)c2OC)-c2ccccc2S1(=O)=O | 2.8
Cc1noc(C)c1NC(=O)Nc1cccc2c1O[C@@H](CN(C)S(=O)(=O)c1cn(C)cn1)[C@H](C)CN([C@@H](C)CO)C2=O | -0.3
O=C(C[C@H]1CC[C@@H](NC(=O)c2ccncc2)[C@@H](CO)O1)Nc1ccccc1 | -0.6
N#Cc1cccc(-c2ccc(C3[C@H]4CNC[C@@H]3N4S(=O)(=O)c3ccc(-c4ccccc4)cc3)cc2)c1 (stereo not given in full) | -3.4&-0.3
CCCCN1C(=O)C(CC(=O)NCCN2CCOCC2)CC(C(=O)N(C(C)C)C(C)C)=C1C (stereo not given) | -0.9
Cc1noc(C)c1S(=O)(=O)Nc1ccc2c(c1)CC(=O)N([C@@H](C)CO)C[C@@H](C)[C@H](CN(C)Cc1ccc3c(c1)OCO3)O2 | 2.1
COc1ccc(O)cc1CN1CCN(c2ncc(Cc3ccccc3)cn2)CC1 | 8.1
Cc1noc(C)c1S(=O)(=O)Nc1cccc2c1O[C@@H](CN(C)Cc1ccccc1)[C@@H](C)CN([C@H](C)CO)C2=O | -2.4
Cn1cnc(CCNC(=O)C[C@@H]2CC[C@H]3[C@@H](COC[C@@H](O)CN3C(=O)Nc3ccccc3)O2)c1 | 1.7
Cc1noc(C)c1S(=O)(=O)Nc1ccc2c(c1)C(=O)N([C@@H](C)CO)C[C@@H](C)[C@H](CN(C)C(=O)C1CCCCC1)OCCCC[C@H](C)O2 | -2.1
COc1ccc2c(c1)nc(-c1cccc(Br)c1)c(=O)n2C(c1ccccn1)c1nc2ccccc2[nH]1 (stereo not given) | 4.1
CN1C(=O)c2cc(NS(=O)(=O)c3ccc(Cl)cc3)ccc2OC[C@@H]2O[C@@H](CC(=O)O)CC[C@H]21 | -0.7
O=C(NCCN1CCCCC1)[C@H]1N[C@H]2c3ccc(-c4ccncc4)c(=O)n3C[C@H]2[C@@H]1CO | 3.8
COc1cccc(-c2ccc3c(c2)[C@@H]2[C@@H](CCN2C(=O)C2CCOCC2)[C@@H](CO)N3)c1 | -2.4
O=C(C[C@H]1CC[C@H]2[C@@H](COC[C@H](O)CN2S(=O)(=O)c2ccc(Cl)cc2)O1)N[C@H]1CCN(Cc2ccccc2)C1 | 7.4
CC(C)NC(=O)c1cc(C2CCCCN2C(=O)OCCF)on1 (stereo not given) | -1.9
Cc1cc(C(=O)Nc2cccc3c2O[C@H](CN(C)Cc2ccncc2)[C@H](C)CN([C@H](C)CO)C3=O)n(C)n1 | -2.1
O=C(C1CCOCC1)N1CC(=O)N2[C@H](CO)[C@@H](c3ccc(C#CC4CCCCC4)cc3)[C@H]2C1 | 5.0
NC(Cc1ccc(Cl)cc1)c1csc(Nc2ccc(C(=O)c3ccccc3)cc2)n1 (stereo not given) | 10
C[C@@H]1CCCCO[C@H](CN(C)Cc2ccc(C(=O)O)cc2)[C@H](C)CN([C@H](C)CO)C(=O)c2cc(NC(=O)Nc3ccc4c(c3)OCO4)ccc2O1 | 1.7
NCC1OC(n2cnc3c(N)ncnc32)CC1O (stereo not given) | -2.0
C[C@@H]1CN([C@@H](C)CO)C(=O)c2cc(NC(=O)CCCCCC(=O)Nc3ccccc3N)ccc2O[C@@H]1CN(C)S(=O)(=O)c1cn(C)cn1 | -12
CCCN1C[C@@H](C)[C@@H](OC)CN(C)C(=O)c2cc(NC(=O)C3CCOCC3)ccc2OC[C@H]1C | -3.0
COc1cccc(S(=O)(=O)N2CC3(CN(C(=O)Nc4cccc(F)c4)[C@H](CO)c4[nH]c5cc(OC)ccc5c43)C2)c1 | -2.6
CCCNC(=O)Nc1ccc2c(c1)C(=O)N(C)C[C@H](OC)[C@@H](C)CN(C(=O)C1CC1)[C@@H](C)CO2 | -2.0
C[C@@H]1CCCCO[C@@H](CN(C)Cc2ccncc2)[C@H](C)CN([C@H](C)CO)C(=O)c2cc(NC(=O)Cc3ccccc3)ccc2O1 | -20
CO[C@H]1CN(C)C(=O)c2cc(NC(=O)NC3CCCCC3)ccc2OC[C@@H](C)N(CC2CC2)C[C@@H]1C | -0.1
CC(C)NC(=O)N(C)C[C@H]1Oc2ccc(NC(=O)C3CC3)cc2CC(=O)N([C@H](C)CO)C[C@H]1C | -3.6
CCC(=O)N1C[C@H](C)[C@H](OC)CN(C)C(=O)c2cc(NC(=O)CC(F)(F)F)ccc2OC[C@H]1C | -3.0
C[C@H](CO)N1C[C@H](C)[C@H](CN(C)C(=O)Nc2ccc(C(F)(F)F)cc2)Oc2ccc(NS(=O)(=O)c3cccs3)cc2C1=O | 1.8
New compounds follow
SMILES | MLL AF4-AF9 inh
C[C@@H]1CN([C@H](C)CO)C(=O)c2cccc(NC(=O)CCCCCC(=O)Nc3ccccc3N)c2O[C@@H]1CN(C)S(=O)(=O)c1ccc(Cl)cc1 | -15
C[C@@H]1CN([C@@H](C)CO)C(=O)c2cc(NC(=O)c3ccccc3)ccc2O[C@@H](C)CCCCO[C@@H]1CN(C)C(=O)CCC(F)(F)F | -9.6
CC(C)NC(=O)N(C)C[C@H]1OCc2cnnn2CCCC(=O)N([C@H](C)CO)C[C@@H]1C | 0.3&0.1&-0.8
Cc1ccc(S(=O)(=O)N2C[C@H](O)COC[C@@H]3O[C@@H](CC(=O)NCc4ccc(Cl)c(Cl)c4)CC[C@H]32)cc1 | 2.6
C[C@@H]1CN([C@H](C)CO)C(=O)Cc2cc(NC(=O)CCN3CCOCC3)ccc2O[C@H]1CN(C)CC1CC1 | 0.2
O=[N+]([O-])c1ccccc1C(=Nc1ccccc1)c1c(O)cc(O)cc1O | 1.2
O=C(Cc1ccccn1)N1CC[C@@H]2[C@H]1c1cc(-c3cccc(F)c3)ccc1N[C@@H]2CO | 2.4
C[C@@H]1CN([C@H](C)CO)C(=O)c2cc(NS(=O)(=O)c3ccc(F)cc3)ccc2O[C@H]1CN(C)Cc1ccc(-c2ccccc2)cc1 | 1.3
COc1ccc2c3c([nH]c2c1)[C@H](CO)N(C(=O)c1cnccn1)CC31CN(C(=O)c2cnccn2)C1 | 0.0
C[C@H]1CCCCO[C@@H](CN(C)C(=O)C2CCCCC2)[C@@H](C)CN([C@@H](C)CO)C(=O)c2cc(NC(=O)c3ccccc3)ccc2O1 | -0.5
COc1ccc(CN(C)C[C@H]2OCCCC[C@H](C)Oc3ccc(NC(=O)Nc4ccc5c(c4)OCO5)cc3C(=O)N([C@H](C)CO)C[C@H]2C)cc1 | 14
O=C(Cc1ccc(OCc2ccccc2)cc1)NCc1ccc2c(c1)OCO2 | -6.8
C#CCNC(=O)C1=C[C@@H](C(C)(C)C)[C@H](CCCO)[C@@H](OCC)O1 | -0.3
CO[C@@H]1CN(C)C(=O)c2cc(NC(=O)c3cc(C)on3)ccc2OC[C@@H](C)N(C(=O)C2CCC2)C[C@H]1C | 0.5

The list is partial; count on the stated rates, not on these rows.
